# HPGD inh: qHTS Assay for Inhibitors of HPGD (15-Hydroxyprostaglandin Dehydrogenase). Potency, µM, for inactives: at the top dose activity change, negative = inhibition, actives largely listed as inhibitors. purified HPGD, NADH fluorescence kinetic, PGE2 substrate. hit rate 4.3% among 150,000. AID 894, 2007; active = well fitted inhibition curve with a large enough effect (not every such curve was filed as active); inconclusive = small, poorly fitted or top-dose-only effect, or another doubt; inactive = no such curve, though single readings can be large or run the other way;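 further: top concentration of the series not given in the record; plate controls included wells without enzyme; inactives centre near -10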
# Target sequence (P15428 whole entry, looked up): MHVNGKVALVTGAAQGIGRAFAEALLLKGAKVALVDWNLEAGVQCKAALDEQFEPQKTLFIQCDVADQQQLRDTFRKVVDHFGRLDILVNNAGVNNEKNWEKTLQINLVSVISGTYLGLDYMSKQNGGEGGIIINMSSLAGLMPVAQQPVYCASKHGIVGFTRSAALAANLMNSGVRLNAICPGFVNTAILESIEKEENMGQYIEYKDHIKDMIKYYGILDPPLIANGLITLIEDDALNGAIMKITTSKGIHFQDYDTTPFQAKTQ
#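 20 nM HPGD preincubated 15 min at room temperature with compound in 50 mM Tris-HCl pH 8, 0.01% Tween 20. Started with 1 mM NAD+ and 30 uM prostaglandin E2; NADH fluorescence (360/450 nm) read 5 times over 30-s intervals, last minus first.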
# The depositor's hits bear a star; ? = inconclusive; & = joins results of further samples. On the % scale 0 is the no-effect control and ±100 the full control effect; potency means the concentration at half of the fitted maximal effect. These rows are one share of the data; count on the stated rates, not on these rows.
HPGD inh	SMILES
-4.2%	CC(C)(C)NC(=O)C1CN(S(=O)(=O)c2ccccc2)CCN1S(=O)(=O)c1ccccc1 (stereo not drawn)
-2.9%	COc1ccc(-n2c(Cc3ccccc3)nnc2SCc2ccc([N+](=O)[O-])cc2)cc1
-21.2%	CCN(CC)C(=O)c1ccc(S(=O)(=O)N2CCC(c3nc4ccccc4s3)CC2)cc1
-3.0%	Cc1cc(NC(=O)C2CC(c3ccc(F)cc3)=NO2)no1 (stereo not drawn)
25.1µM*	COC(=O)CC1Oc2cc3oc4c(c3cc2O1)C(=O)CC(C)(C)C4 (stereo not drawn)
?	Cc1ccc(/C(N)=N/OC(=O)c2ccc(Cl)cc2Cl)cc1
-22.9%	Cc1nc(-c2ccc(NC(=O)c3ccccc3Br)cc2)cs1
-2.9%	CC1CC(C)CN(CCCNC(=O)C2CCCN(c3nnc(N4CCCC4=O)s3)C2)C1 (stereo not drawn)
-4.0%	COC(=O)c1ccccc1NC(=O)CSc1nnc(-c2ccc(OC)cc2)n1C
-10.0%	COc1ccccc1C(O)(C(=O)NNc1ccccc1C)c1ccccc1OC
-5.4%	O=C(O)C1C(c2ccccc2)C(C(=O)N2CCOCC2)C1c1ccccc1 (stereo not drawn)
11.2µM*	Cc1ccc(NC(=O)COc2cccc3ccc(C)nc23)c(Br)c1
-12.2%	COc1ccc(N2CCN(C(=O)c3csc4ccccc34)CC2)cc1
-7.5%	O=C(O)c1cccc(S(=O)(=O)N2Cc3ccccc3C2)c1
-5.0%	CC(C)C(NC(=O)c1ccco1)C(=O)NCC(c1ccco1)N(C)C (stereo not drawn)
-29.5%	O=C(Nc1ccc(Cn2nnc3ccccc32)cc1)c1ccco1
-15.1%	CN(C)Cc1ccccc1C1(O)c2ccccc2CSc2ccccc21 (stereo not drawn)
-6.4%	Cc1ccc2c(c1)C1CN(C)CCC1N2C(=O)c1ccccc1NS(=O)(=O)c1ccc(F)cc1C (stereo not drawn)
-2.1%	NC(=O)CSc1nnnn1CC(CC(=O)O)c1ccccc1 (stereo not drawn)
-26.0%	O=C(NCc1cccnc1)c1ccc(COc2ccccc2Br)o1
-12.8%	NC(=O)N/N=C\c1ccc([N+](=O)[O-])o1
-1.5%	OCCSc1c(F)c(SCCO)c(SCCO)c(F)c1SCCO
15.8µM*	O=C(c1ccc2snnc2c1)N1CCCCC1
-3.6%	CCCCN(CC)C(=O)CSc1nc2ccccc2c(=O)n1CC1COc2ccccc2O1 (stereo not drawn)
-15.4%	COc1ccccc1CN(Cc1nc2ccccc2c(=O)[nH]1)S(=O)(=O)c1ccc2ccccc2c1

# Carrying on.
HPGD inh	SMILES
-15.9%	Cc1cc(C)cc(OCc2nnc(SCC(=O)N3CCN(c4ccccc4)CC3)o2)c1
-2.7%	COc1cccc(C(=O)CSc2nc3ccccc3n2CC(=O)N2CCOCC2)c1
-7.5%	Cc1ccc(S(=O)(=O)NC(C)(C)CSc2nncn2N)cc1
-8.2%	CC(C)C(NC(=O)C12CC3CC(CC(C3)C1)C2)C(=O)N/N=C/C1=C(N2CCOCC2)C(=C\c2cccc([N+](=O)[O-])c2)/CC1 (stereo not drawn)
-8.7%	O=C(N1CCOCC1)N1c2ccccc2CC(N2CCOCC2)c2ccccc21 (stereo not drawn)
-14.0%	CCCC(=O)NC(=S)Nc1ccc(Cl)cn1
-26.6%	COc1ccccc1NC(=S)NNC(=O)c1ccc(Cl)cc1Cl
-15.6%	CCOC(=O)c1cc2n(n1)C(C(F)(F)F)CC(C)N2 (stereo not drawn)
-3.7%	CCC(=O)NC(=S)Nc1ccc(S(=O)(=O)NC(C)=O)cc1
0.0%	CCCCc1nc2c(c3c1C[C@H](C)OC3)CN(C(=O)C1CCCCC1)CC2
-9.6%	O=C(CSc1ccc2ccccc2c1)Nn1cnnc1
15.8µM*	Cn1c(C(=O)OCC(=O)NCC2CCCO2)cc2sccc21 (stereo not drawn)
-10.4%	O=C1CSC(c2ccc(Cl)cc2Cl)N1c1ccccn1 (stereo not drawn)
-2.2%	Cc1cccc(NC(=O)CN2C(=S)NC(C)(C)CC2C)c1 (stereo not drawn)
-8.3%	CN1CCN(c2nc3c(c(=O)n(C)c(=O)n3C)n2Cc2cccc3ccccc23)CC1
-4.9%	C=CCc1cccc(Cl)c1OCCON1C(=O)CCC1=O
-16.9%	COc1cccc(NC(=S)NNC(=O)Cn2nc(C(F)F)cc2C(F)F)c1
-13.0%	CCn1nnnc1NCc1ccc(N2CCCC2)cc1
-2.1%	COc1ccccc1-c1nnc(SCC(=O)NC2CCS(=O)(=O)C2)n1CCc1ccccc1 (stereo not drawn)
-13.0%	Cc1cc(C)n(CC(O)Cn2c3ccc(Br)cc3c3cc(Br)ccc32)c(=O)n1 (stereo not drawn)
-19.4%	O=C(c1ccc(Cl)c(Cl)c1)c1cc(-c2ccccn2)c(N2CCOCC2)s1
-13.8%	Cc1cc(NCCN2CCOCC2)n2ncc(-c3ccccc3)c2n1
-11.4%	CC(C)(C)C1=C[C@@H](CO)C[C@@H](CO)C1
-12.4%	CCOC(=O)c1ccccc1NC(=O)CCNC(=O)Cn1cnc2ccccc2c1=O
-1.6%	Cc1cc(C)c(S(=O)(=O)N2CCN(C)CC2)c(C)c1

# Next section.
HPGD inh	SMILES
-11.2%	O=C(c1ccco1)N1CCN(S(=O)(=O)c2ccc3c(c2)CCN3C(=O)C2CCC2)CC1
-0.5%	CCCCOCCCNC(=O)c1c(-c2ccccc2)noc1C
-11.2%	CCC(=O)Nc1ccc(C(=O)OCc2ccccc2Cl)cc1
-12.0%	C/C(=C\C(=O)c1ccc(F)cc1)NCc1ccc2c(c1)OCO2
3.3%	COCCN1C(=O)c2ccccc2C(C(=O)NCCCN2CCCC2)C1c1c[nH]c2ccccc12 (stereo not drawn)
?	Cc1ccc(Nc2nc(-c3sc(NC(=O)c4ccccc4)nc3C)cs2)cc1
?	CCOC(=O)c1cnc2c(ccc3ccccc32)c1NCCO
0.4%	COC(=O)CCCC1=CC2=CC(=O)C(C)(O)C(=O)C2=CO1 (stereo not drawn)
-2.4%	CC1CCN(C(=O)Cn2c(=O)n(CCc3ccccc3)c(=O)c3ccccc32)CC1
-1.2%	c1nc(N2CCCCCC2)c2[nH]cnc2n1
-19.6%	CCOC(=O)C1CCCN(c2ncnc3c2oc2ccccc23)C1 (stereo not drawn)
-4.3%	COC(=O)c1nnn(CC(=O)Nc2cc(Cl)ccc2C)c1C(=O)OC
-12.8%	COc1ccccc1CNS(=O)(=O)c1ccc(NC(C)=O)cc1
-1.3%	C=CC1=C2C=C(C3CC3)N(C3CCCC3)C=C2C(=O)C(C)(OC(=O)c2ccco2)C1=O (stereo not drawn)
-13.0%	COc1ccc(N2CCN(C(=O)c3cccc(Cn4cc(Cl)cn4)c3)CC2)cc1
-1.2%	COc1cc(C2C(C(N)=O)=C(C)Nc3nc(CCCO)nn32)cc(OC)c1OC (stereo not drawn)
12.6µM*	COc1cccc(OC)c1-c1nn2c(-c3cc(-c4ccccc4)n[nH]3)nnc2s1
-10.4%	C=CCn1c(SCc2ccc([N+](=O)[O-])cc2)nnc1C(C)NC(=O)c1ccccc1 (stereo not drawn)
-10.4%	C=CCn1c(SC2CCOC2=O)nc2scc(C3CC3)c2c1=O (stereo not drawn)
8.91µM*	O=C(c1ccc(Cl)cc1)N1CCCOC1
25.1µM*	CCOc1ccc(C(C)NC(=O)C2CCC2)cc1 (stereo not drawn)
-7.9%	O=C(NNc1ccc([N+](=O)[O-])cc1[N+](=O)[O-])C1C2CCCCC21 (stereo not drawn)
-7.4%	CCOC(=O)C1CCN(C(=O)c2ccccc2N(C)S(=O)(=O)c2ccccc2)CC1
-8.0%	O=C(NC(Cc1ccccc1)C(=O)O)/C(=C\c1ccco1)NC(=O)c1ccc(Br)cc1 (stereo not drawn)
-19.5%	Cc1cc(=O)[nH]c(N=N/C(=N/Nc2ccccc2C)c2ccccc2)n1

# Looked up above:
# `COc1ccccc1CNS(=O)(=O)c1ccc(NC(C)=O)cc1` in HPGD inh = -12.8%
# `CC1CCN(C(=O)Cn2c(=O)n(CCc3ccccc3)c(=O)c3ccccc32)CC1` in HPGD inh = -2.4%
# `COc1cccc(OC)c1-c1nn2c(-c3cc(-c4ccccc4)n[nH]3)nnc2s1` in HPGD inh = 12.6µM*
# `O=C(c1ccco1)N1CCN(S(=O)(=O)c2ccc3c(c2)CCN3C(=O)C2CCC2)CC1` in HPGD inh = -11.2%

# Next part
HPGD inh	SMILES
-17.1%	COc1ccc(NC(=S)Nc2cc(C)ccn2)c(OC)c1
-20.7%	CC(C)(C)CC(C)(C)NC(=S)Nc1ccc2nc(-c3ccccn3)c(-c3ccccn3)nc2c1
-6.3%&1.0%	C[C@@H]([C@H](O)c1ccc(O)cc1)N1CCC(Cc2ccccc2)CC1
-15.0%	COc1cc(C(=O)ON=C2C=C(C)C(=O)C(C)=C2)cc(OC)c1OC
7.94µM*	CC1CCCN(C(=O)CCCn2c(=S)[nH]c3ccccc3c2=O)C1 (stereo not drawn)
-5.2%	COc1ccccc1NC(=O)N(C1CCCC1)C1CCN(C(C)=O)CC1
-6.1%	Cc1cc(C)n(CC(=O)c2ccccc2)c(=O)c1C#N
-6.8%	CCOC(=O)c1ccc(NC(=O)CSc2nnnn2CCCO)cc1
-6.8%	Cc1oc(-c2ccccc2F)nc1CN1CCC(C(=O)NC2CC2)CC1
-2.7%	CC(C)[C@H](N)c1nnc(SCc2ccc(Cl)cc2)o1
-16.4%	Cc1cccc(-c2nc(CN3CCCC(C(=O)NC4CCCCCC4)C3)c(C)o2)c1 (stereo not drawn)
-13.4%	O=C(c1ccc(Br)cc1)c1cc([N+](=O)[O-])ccc1N1CCCCC1
?	Cc1cc(SCC(=O)N2CCC(c3noc4ccc(F)cc34)CC2)nc2ccccc12
-4.4%	CN(C)c1nc(N(C)C)nc(N2CCCCC2)n1
-4.4%	CCOC(=O)C(C(=O)c1ccccc1)[C@H](CCc1ccccc1)NC(=O)OC (stereo partly drawn)
-26.5%	COc1ccc(/C(C)=C2/SC(=S)N(CCC(=O)O)C2=O)cc1
-13.5%	O=C(NCCc1nc(-c2ccccc2)cs1)c1ccc(Br)cc1
?	COc1ccc2[nH]c(=O)c(CN(C(=O)NC3CCCCC3)C3CCCCC3)cc2c1
-2.1%	COc1ccc([N+](=O)[O-])cc1NC(=O)c1ccc(C)o1
-3.5%	CC1(C)N=C(N)N=C(N)N1c1cccc(OCc2cccc([N+](=O)[O-])c2)c1
-25.0%	Cc1ccsc1C(=O)Nc1nnc(-c2ccco2)o1
-6.3%	Cc1ccc(NC(=O)CS(=O)CC(=O)N(CC(=O)NC2CCCC2)c2cccc(C)c2C)cc1 (stereo not drawn)
-8.3%	CCOC(=O)N1CCN(C(=O)c2ccc(OCC)c(OCC)c2)CC1
-4.0%	O=S1(=O)CCN(Cc2ccc(Cl)c(Cl)c2)CC1
2.3%	Cc1cccc(C)c1OCC(=O)NNC(=O)c1ccoc1C

# (next part)
HPGD inh	SMILES
-23.1%	O=C1C2C3C=CC(C3=C3CCCCC3)C2C(=O)N1Cc1ccccc1 (stereo not drawn)
?	COC(=O)[C@@]1(Cc2ccc(F)cc2)[C@H]2c3cc(C(=O)N(C)C)n(CCc4ccc(O)c(O)c4)c3C[C@H]2CN1C(=O)c1ccccc1
-7.5%	CCOC(=O)C(/C=C(\C#N)C(=O)OCC)=C(/N)N1CCN(c2ccc(Cl)cc2)CC1
-26.7%	C=CCn1c(Cc2ccc(OC)cc2)nnc1SCC(=O)NCCc1ccccc1
-2.0%	CC1(C)CC(=O)CC(C)(C)N1OC(=O)c1ccco1
-13.0%	CN1CCN(S(=O)(=O)c2cc([N+](=O)[O-])ccc2N/N=C/c2ccc(Cl)cc2)CC1
3.0%	CC(=O)Nc1sc2c(c1C(c1ccc(Cl)cc1)N1CCOCC1)CCCC2 (stereo not drawn)
-16.1%	Nc1nnnn1/N=C/c1ccccc1OCc1ccccc1
20µM*	N#CCCN1CCN(C(=S)c2ccc(-c3ccc(Cl)cc3)o2)CC1
0.5%	CCN1C(=O)/C(=c2\o/c(=C3\C=Cc4ccccc4N3CC)c(=O)n2CC)SC1=S
-2.9%	COc1ccccc1C(=O)Nc1ccc2c(c1)nc(CN1CCN(C(C)=O)CC1)n2C
1.1%	CCCCC(=NCCO)C1=C(O)C(C(=O)OC)C(C)(C)CC1=O (stereo not drawn)
-11.7%	Cc1nn(Cc2c(Cl)cccc2Cl)c(C)c1NC(=O)CCCn1nc(C)c([N+](=O)[O-])c1C
-1.6%	Cc1ccc(CCN2CC(C(=O)NCCCN(C)Cc3ccccc3)CC2=O)cc1 (stereo not drawn)
-11.2%	CC1(C)CC(=O)C2=C(C1)NC(=O)CC2c1ccccc1F (stereo not drawn)
-24.9%	COc1ccc(CCn2c(=N)c(C(=O)NCc3ccco3)cc3c(=O)n4ccccc4nc32)cc1
-15.1%	COc1ccc(N(CN2C(=O)c3ccccc3C2=O)C(=O)COc2ccc(Cl)cc2Cl)cc1
-20.9%	Cn1c(SCC(=O)c2ccccc2)nnc1-c1cnccn1
-17.1%	O=C1OC(c2cccc([N+](=O)[O-])c2)C2(CCCC2)C(=O)C12CCCCC2 (stereo not drawn)

# 2 compounds picked at random from those above, as already listed:
HPGD inh	SMILES
-11.2%	CC1(C)CC(=O)C2=C(C1)NC(=O)CC2c1ccccc1F (stereo not drawn)
-7.5%	CCOC(=O)C(/C=C(\C#N)C(=O)OCC)=C(/N)N1CCN(c2ccc(Cl)cc2)CC1

# 3 of the entries above in order of the HPGD inh value, smallest number first:
HPGD inh	SMILES
-13.0%	CN1CCN(S(=O)(=O)c2cc([N+](=O)[O-])ccc2N/N=C/c2ccc(Cl)cc2)CC1
-11.7%	Cc1nn(Cc2c(Cl)cccc2Cl)c(C)c1NC(=O)CCCn1nc(C)c([N+](=O)[O-])c1C
-1.6%	Cc1ccc(CCN2CC(C(=O)NCCCN(C)Cc3ccccc3)CC2=O)cc1 (stereo not drawn)
